Compound activity: PubChem, Broad Institute
RanGTP-Impb inh – disruptors of Ran-importin-beta complex formation – biochemical, FRET, CFP-Ran, YFP-importin-beta, homogeneous, primary screen | cell-free CFP-Ran/YFP-importin-beta FRET ratio | actives 1.1% (n = 300,000) | inhibition, % (test concentration not listed);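 active means most replicates above 15%; inconclusive means exactly half above 15%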;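 further: 0% = DMSO wells and 100% = Ran loaded with GDP instead of GTP; wells of about 40 µL received 100 nL stock; the first replicate is given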
ALR H2O2 inh – human ALR oxidase inhibition via reduced H2O2; actives 3.8% (n = 290,000); purified ALR, DTT oxidation, H2O2 HRP-luminol luminescence; inhibition, % (no concentration beside the values); P55789;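 active means mean and each replicate at 75% or more; inconclusive means only one of the two met; inactive means neither met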;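 further: stock transfer was 7.5 nL into about 7.5 µL; 0% = neutral wells and 100% = wells with inactivated enzyme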
Target sequence (P55789 whole entry, looked up): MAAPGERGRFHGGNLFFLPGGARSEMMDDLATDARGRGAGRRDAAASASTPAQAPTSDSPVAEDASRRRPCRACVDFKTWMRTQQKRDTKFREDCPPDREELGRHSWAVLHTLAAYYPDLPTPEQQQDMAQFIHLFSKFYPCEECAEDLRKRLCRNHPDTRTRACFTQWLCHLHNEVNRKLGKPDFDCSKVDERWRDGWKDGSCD
Beta cell apopt – blocks beta cell apoptosis. INS-1E cytokine-induced death, ATP luminescence, 48 h; percent of positive-control rescue, neutral wells zero. protection from apoptosis, % (no concentration beside the values). actives 0.8% (n = 300,000). AID 435005;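 active means all replicates at 75% or more, or half of them and the mean; inconclusive means half reach 75% but not the mean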;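 further: 0% = cytokine-treated negative control wells and 100% = positive control rescue; higher means more ATP so stronger rescue from cytokine killing; wells of about 40 µL received 100 nL stock; the first replicate is given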
AF4-AF9 inh – MLL-AF4/AF9 protein interaction inhibition; AlphaScreen, biotin-AF4 peptide binding to FLAG-AF9; inhibition, % at 10 µM; actives 0.47% (n = 350,000);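 active means every replicate reaching a set inhibition limit, whatever the replicate mean, cut at about 25% in these data; inconclusive means mean inhibition reaches that limit but some replicates miss it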;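 further: 0% = plate neutral control median and 100% = total signal loss; the record names both 10 and 1 µM as test concentration; the first replicate is given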
Target sequence (P42568 whole entry, looked up): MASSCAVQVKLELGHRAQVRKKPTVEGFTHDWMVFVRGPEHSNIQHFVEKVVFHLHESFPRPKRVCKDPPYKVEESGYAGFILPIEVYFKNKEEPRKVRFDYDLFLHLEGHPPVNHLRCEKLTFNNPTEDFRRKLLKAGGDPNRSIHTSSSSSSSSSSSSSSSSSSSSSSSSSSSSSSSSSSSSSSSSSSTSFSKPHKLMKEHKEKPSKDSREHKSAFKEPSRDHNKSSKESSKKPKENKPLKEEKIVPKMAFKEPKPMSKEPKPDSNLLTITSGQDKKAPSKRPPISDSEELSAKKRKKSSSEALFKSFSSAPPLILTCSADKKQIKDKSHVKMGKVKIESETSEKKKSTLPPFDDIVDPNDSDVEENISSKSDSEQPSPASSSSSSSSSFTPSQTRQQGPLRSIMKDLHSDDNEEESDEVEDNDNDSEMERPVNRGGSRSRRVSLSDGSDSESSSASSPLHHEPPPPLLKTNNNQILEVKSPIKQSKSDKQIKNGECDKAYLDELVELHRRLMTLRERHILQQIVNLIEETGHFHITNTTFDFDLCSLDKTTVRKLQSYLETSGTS
rRNA inh HTS – inhibitors of bacterial rRNA selective over humanized ribosomes; GFP signal change (wild-type ribosome), % (concentration not given with the values); actives 1.6% (n = 350,000); E. coli WT GFP vs humanized-ribosome RFP mutants, fluorescence, 24 h; stronger effect = lower value; DMSO median 0, no signal -100; AID 720706;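 active means significant combined selectivity score with lowered wild-type GFP, culture density cut under 30%, mutant RFP and density less affected; inactive means any of these conditions unmet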; further: one replicate is shown; some compounds called inactive have numbers as strong as hits
T cruzi inh – T. cruzi replication inhibition; actives 1.4% (n = 300,000); T. cruzi beta-gal in NIH3T3, luminescence, 90 h; AID 1885; inhibition, % (concentration not given with the values);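 active means mean inhibition across valid replicates above about 55%, limit read from the data; inconclusive means mean below that limit but half or more replicates reach it; inactive means mean below it, under half of replicates reach it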;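 further: signal also drops with host cell toxicity which is not excluded here; 0% = plate median of DMSO wells and 100% = zero luminescence signal; higher percent means less beta-gal luminescence so fewer parasites; stock transfer was 50 nL into about 50 µL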
Calb FLC – C. albicans growth modulation with fluconazole. actives 0.57% (n = 300,000). AID 1979. C. albicans CaCi-2 (fluconazole-resistant clinical isolate) + fluconazole, Alamar Blue growth, 48 h. growth inhibition, % (no concentration beside the values);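 active means most replicates above 75%; inconclusive means exactly half above 75%; inactive means most below 75%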;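 further: all wells also contain fluconazole at 8 µg/ml as a sub-toxic cotreatment; 0% = median of DMSO wells and 100% = median of geldanamycin control wells; wells of about 8 µL received 7.5 nL stock; the first replicate is given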
FGF22 binding – binders of recombinant human FGF22 by thermal shift. SYPRO orange fluorescence; percent of sucrose octasulfate shift, DMSO zero. calls only at 9.99 µM. Q9HCT0. actives 1.5% (n = 340,000). AID 651658;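 active means melting point raised past a set limit in the mean and every replicate; inconclusive means no clear call; three in four hits are not shown here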
Target sequence (Q9HCT0 whole entry, looked up): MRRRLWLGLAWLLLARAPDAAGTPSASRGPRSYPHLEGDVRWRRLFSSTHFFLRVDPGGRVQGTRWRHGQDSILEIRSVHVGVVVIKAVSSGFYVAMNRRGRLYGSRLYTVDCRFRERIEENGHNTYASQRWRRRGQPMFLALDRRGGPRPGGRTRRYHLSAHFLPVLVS
rRNA inh HTS OD600 – second read-out of rRNA inh HTS, no call of its own (marks repeat the call); OD600 change, %; measured here: OD600 growth;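 optical density of the mix in the first replicate; 0 = DMSO median and -100 = no signal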
rRNA inh HTS RFP – also measured in rRNA inh HTS; calls as there; RFP signal change, %; measured here: RFP humanized mutant strains;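 first replicate; 0 = DMSO median and -100 = no signal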
Starred values were filed as active, the others as inactive; i = inactive; ? = inconclusive; · = no result given; & = joins results of further samples. These rows are one share of the data, so the mix of outcomes need not match the whole.

SMILES	RanGTP-Impb inh	ALR H2O2 inh	Beta cell apopt	AF4-AF9 inh	rRNA inh HTS	rRNA inh HTS OD600	rRNA inh HTS RFP	T cruzi inh	Calb FLC	FGF22 binding
CCc1ccccc1Oc1coc2cc(O)ccc2c1=O	1.6	4	1	1.6	-49	-67	-22	-6	-7	i
Cc1ccc(NC(=S)Nc2c(C)n(C)n(-c3ccccc3)c2=O)cc1	?	0	2	·	·	·	·	-2	?	·
Cc1ccccc1C(=O)N1CCC(C(=O)Oc2ccc(C#N)cc2)CC1	4.0	2	-4	-1.5	4	16	-0.4	-11	2	i
Cc1[nH]c(=O)[nH]c(=O)c1CSc1nnc([C@H](CC(C)C)NC(=O)OC(C)(C)C)o1	?	-5	-1	·	·	·	·	-5	8	·
N#Cc1nc(COc2ccccc2F)oc1NCCCn1ccnc1	2.7	0	-4	·	·	·	·	-7	-4	·
CCc1ccc(C(=O)CSc2nnc(C3CC3)n2C2CC2)cc1	·	23	-1	-1.2	-11	-1	1.8	·	·	i
CCC(=O)N1CCc2cc(S(=O)(=O)N3CCc4ccccc4C3)ccc21	-2.3	-3	-11	·	·	·	·	22	-4	·
Cc1cccc(C(=O)n2c(=S)nc3cc(C)ccn32)c1	-0.1	-18	0	-0.9	6	3	-1.1	-5	-3	i
CCCC(=O)n1nc(-c2ccc(C)cc2)nc1NCc1ccco1	-1.6	90*	-2	0.2	2	11	-1.2	-1	-15	i
COC(=O)c1cnc(SCc2ccc(C)cc2)n1C	5.7	-4	-4	0.7	1	-1	1.7	-12	0	i
CCc1nc(SCC(=O)c2cc(C)ccc2C)n[nH]1	5.7	-2	-4	·	·	·	·	-2	-6	·
COc1ccccc1N1CCN(CC(O)COc2cccc3ccccc23)CC1 (centres undefined)	-3.6&-1.1	-22&-13	-9&-8	7.0&4.4	-57	-77	-14	9&17	·	i
C=CCNCCOc1ccc(C)cc1[N+](=O)[O-]	6.8	·	-5	-2.2	19	9	0.0	-11	-3	i
CCn1cc([N+](=O)[O-])c(C(=O)N2N=C(c3ccc(Cl)c(Cl)c3)CC2c2ccccc2O)n1 (centres undefined)	-3.0	0	2	5.9	-20	-39	4.4	37	35	i
O=C(O)C(Oc1ccc2cc(-c3ccc(Cl)cc3)c(=O)oc2c1)c1ccccc1 (centres undefined)	0.9	15	-1	-7.1	-11	-5	-7.0	-13	7	i
CC1CCCC(C)N1CCCNC(=O)c1ccc2c(c1)NC(=O)c1ccccc1S2 (centres undefined)	4.0	-14	-5	5.0	3	11	1.6	13	?	i
CC1Cc2ccccc2N1C(=O)c1ccnc(C(C)(C)C)c1 (centres undefined)	0.8	-19	-2	·	·	·	·	-8	-6	·
COc1ccc(NC(=O)/C(=C\c2ccco2)NC(=O)c2ccco2)cc1	4.1	-2	-7	0.6	5	5	2.7	11	1	i
CCCN(CCC)CCCNC(=O)C1c2cc(OC)c(OC)cc2C(=O)N(C)C1c1cccnc1 (centres undefined)	4.4	5	3	-0.3	12	-1	-0.1	-6	-8	i
COc1ccc(-c2nc3ccncc3[nH]2)cc1OC	-0.3	·	3	·	·	·	·	-1	6	·
COc1c(C)cccc1C(=O)Nc1ccc(N2CCN(C(=O)c3ccccc3C)CC2)cc1	·	12	-7	11	-6	-11	0.8	2	·	i
COc1cc(OC)cc(-c2c(-c3cccs3)c3cc(-c4ccc5c(c4)OCO5)ccc3n2C)c1	·	-4	1	-2.2	6	12	4.4	·	·	i
CCOc1ccc(/C=N/NC(=O)CN2CCCCC2)cc1OCC	-2.0	9	14	0.8	12	6	2.5	-11	-5	i
O=C(Nc1cccc(Cl)c1)c1csc(-c2ccccc2)n1	3.0	0	-3	·	·	·	·	-3	-30	·
CCC(C)NC(=O)C1CN(S(=O)(=O)c2ccccc2)CCN1S(=O)(=O)c1ccccc1 (centres undefined)	0.1	0	-10	·	·	·	·	6	-3	·
SMILES	RanGTP-Impb inh	ALR H2O2 inh	Beta cell apopt	AF4-AF9 inh	rRNA inh HTS	rRNA inh HTS OD600	rRNA inh HTS RFP	T cruzi inh	Calb FLC	FGF22 binding
C=CCN1C(=O)C2(OCCCO2)c2c(C)ccc(C)c21	-0.2	-2	-8	-6.9	-6	1	-1.6	7	1	i
Cc1c(C(=O)N2CCC(C)CC2)sc2ncnc(N(C)c3ccccc3)c12	-6.3	-8	-3	·	·	·	·	17	60	·
CCOc1ccc(CN2CCCC(N3CCN(c4ccc(OC)cc4)CC3)C2)cc1 (centres undefined)	4.3	·	3	22	5	7	-0.9	59*	-5	i
Cc1cc(-c2ccco2)n(CC(=O)NCc2ccco2)n1	0.6	-10	·	-0.4	13	16	3.4	-7	-3	i
CCc1cccc(NC(=O)CCNS(=O)(=O)c2ccc3c(c2)oc(=O)n3C)c1	-4.4	1	-3	3.1	-1	-7	0.9	-13	-12	i
COc1ccc(CCN2CC(C(=O)N(C)Cc3c(C)n[nH]c3C)CCC2=O)cc1 (centres undefined)	-2.1	·	·	0.2	26	15	-12	-16	-10	i
COCCN=C1Sc2nc3c(C)cccc3cc2CN1Cc1ccco1	-0.1	?	-6	·	·	·	·	13	9	·
COc1ccc(NC(=O)c2cc(C3CC3)nc3c2cnn3C(C)C)cc1OC	·	-9	-7	7.3	-19	-28	-5.1	·	·	i
c1ccc2c(c1)[nH]c1ccncc12	-1.9	-7	0	1.0	1	17	-0.5	0	-2	i
Cc1ccc(N2CC(C(=O)Nc3ccccn3)CC2=O)cc1 (centres undefined)	6.9	4	-4	·	·	·	·	-1	3	·
Cn1c(=NC(=O)COc2ccccc2)sc2cc(F)cc(F)c21	0.9	-1	-2	·	·	·	·	5	-1	·
Cc1cnc(C(=O)OCC(=O)N(Cc2ccccc2)C(C)C)cn1	·	17	-8	4.7	2	3	-0.5	3	2	i
OCC1(Cc2ccc(Cl)cc2)CCN(Cc2ccccc2F)CC1	-3.0	-5	0	2.7	·	·	·	29	-1	·
O=C(COc1ccc2ccccc2c1)NNC(=O)Nc1ccccc1F	-2.0	-2	-11	-6.3	-6	3	-1.1	11	-1	i
Cc1nnc(SCC(=O)Nc2c(C)n(C)n(-c3ccccc3)c2=O)n1Cc1ccccc1	?	0	-3	-1.6	13	22	15	2	12	i
Cc1ccc2c(c1)N(CC(=O)NC1CCCCC1)C(=O)c1cccnc1O2	1.0	·	·	-0.1	7	-15	-2.1	4	-1	i
O=C(N[C@@H]1C/C=C\C[C@H](CC(=O)N(CCO)Cc2ccccc2)C(=O)N[C@@H](Cc2ccccc2)COC1=O)OCC1c2ccccc2-c2ccccc21	·	1	1	1.4	3	10	-1.5	·	·	i
O=C(CCC(=O)Nc1cccc([N+](=O)[O-])c1)NCc1ccccc1	0.7	-1	-1	-3.7	11	11	3.1	-5	11	i
COc1cccc2cc(C(=O)Nc3ccccc3C)/c(=N/O)oc12	0.4	-9	4	-27	13	21	4.4	-14	7	i
NCCN1CCN2C(=O)CN(C(=O)c3ccccc3)CC12 (centres undefined)	·	1	-1	3.4	19	-14	-1.3	·	·	i
CCN1C(=O)C(CC(=O)Nc2ccc(F)cc2)N(CCCN2CCN(c3ccc(F)cc3)CC2)C1=S (centres undefined)	1.4	3	-3	6.0	-53*	39*	-14*	34	-2	i
Cc1ccc(C(CC(=O)O)NC(=O)CN2C(=O)c3ccccc3C2=O)cc1 (centres undefined)	70*	·	-10	2.2	9	15	-0.1	-12	-2	i
COc1ccc(CNC(=O)c2ccccc2C(=O)O)cc1	-3.3	-4	-8	·	·	·	·	1	-10	·
COc1ccc(C(=O)NC(C(=O)NCc2ccccn2)C(C)C)cc1 (centres undefined)	0.6	·	-7	·	·	·	·	-22	-3	·
CCCCCCSc1nc(O)c(C2OC(=O)c3c2ccc(OC)c3OC)c(=O)n1-c1ccccc1 (centres undefined)	4.5	98*	4	·	-6	-11	-0.8	-7	3	·
SMILES	RanGTP-Impb inh	ALR H2O2 inh	Beta cell apopt	AF4-AF9 inh	rRNA inh HTS	rRNA inh HTS OD600	rRNA inh HTS RFP	T cruzi inh	Calb FLC	FGF22 binding
O=C(COc1ccc(Cl)cc1)N(Cc1ccccc1)c1ccccn1	2.3	0	0	·	·	·	·	8	30	·
CCOC(=O)Cn1nc(-c2ccccc2)c(-c2ccccc2)nc1=O	4.5	-9	-4	5.6	1	1	6.6	10	-3	i
Cc1ccc(OCc2nn3c(-c4ccco4)nnc3s2)cc1	-0.8	6	1	·	·	·	·	8	-1	·
O=C(COC(=O)CCS(=O)(=O)c1ccc(Cl)cc1)NCCc1ccccc1	-1.6	-3	-4	5.0	-2	9	-1.6	-25	-7	i
CN1CC=C2C(C#N)=C(N)C(C#N)(C#N)C(c3cccc(Cl)c3Cl)C2C1 (centres undefined)	37*	-3	0	·	·	·	·	-17	8	·
O=C1CCCN1CCCNCC(O)c1ccccc1 (centres undefined)	-2.7	·	-10	-1.6	10	8	4.4	0	-5	i
O=C(NCc1ccccc1)C1=C[C@H](c2ccc3c(c2)OCO3)C[C@H](OCCCCO)O1	2.0	-37	-5	-1.9&1.8	-15	-11	-1.7	-1	9	i
O=C(NC1CCCc2ccccc21)C1CCCO1 (centres undefined)	0.6	-15	-12	-56	6	1	-2.1	-17	15	i
COc1ccc(OC)c(NC(=O)c2ccccc2OC(C)=O)c1	-3.9	?	-3	-11	-9	-20	-15	-22	8	i
O=C(NCCc1ccc(C(F)(F)F)cc1)C1CCC(=O)N(CCc2cccc(F)c2)C1 (centres undefined)	?	7	3	1.3	-13	-42	-4.6	18	10	i
CCN(CC)S(=O)(=O)c1cccc(NC(=O)COc2ncnc3sccc23)c1	2.5	·	0	-0.2	-6	-12	-1.9	-13	-10	i
CC1CN(CCOc2ccc([N+](=O)[O-])cc2)CC(C)O1 (centres undefined)	1.4	6	-2	·	·	·	·	-7	-14	·
C=CCN1C(=O)C(CC(=O)Nc2ccc(OC)cc2)SC1=Nc1ccc(S(N)(=O)=O)cc1 (centres undefined)	-1.5	-7	4	-1.3	17	11	4.4	7	8	i
COc1cc(CNC(C)(C)CO)cc(Br)c1OCc1ccc(Cl)cc1	-1.3	-21	1	·	·	·	·	39	-19	·
COc1cc(CC(=O)OCC(=O)N(C)C2CCCCC2)cc(OC)c1OC	·	4	-1	-0.2	1	-7	-4.9	·	·	i
CC1=CC(c2ccccc2)n2ncnc2N1 (centres undefined)	-0.3	1	-1	·	·	·	·	-11	2	·
COc1ccc(NC2CCCN(C(=O)c3oc(C)cc3C)C2)cc1OC (centres undefined)	3.0	100*	-1	4.8	12	5	2.0	-5	-18	i

3 compounds out of the list, sorted by molecular weight, low to high:
SMILES	RanGTP-Impb inh	ALR H2O2 inh	Beta cell apopt	AF4-AF9 inh	rRNA inh HTS	rRNA inh HTS OD600	rRNA inh HTS RFP	T cruzi inh	Calb FLC	FGF22 binding
COc1cc(CC(=O)OCC(=O)N(C)C2CCCCC2)cc(OC)c1OC	·	4	-1	-0.2	1	-7	-4.9	·	·	i
CN1CC=C2C(C#N)=C(N)C(C#N)(C#N)C(c3cccc(Cl)c3Cl)C2C1 (centres undefined)	37*	-3	0	·	·	·	·	-17	8	·
O=C(NCc1ccccc1)C1=C[C@H](c2ccc3c(c2)OCO3)C[C@H](OCCCCO)O1	2.0	-37	-5	-1.9&1.8	-15	-11	-1.7	-1	9	i
